A647 fluor: qHTS Assay for Spectroscopic Profiling in A647 Spectral Region; Compound fluorescence, A647 channel (570/671 nm), Tris buffer; max dye-equivalent concentration, M; 59,000 tested, under 10 active; active means above 1 µM dye equivalent; inconclusive means 0.1 to 1 µM; inactive means 0.1 µM or less;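 also: values scaled relative to a standard on each plate; highest value over a series up to 38 µM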
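Tris 100 mM pH 8.0; cpd + A647 stds pin-transferred; 15 min RT; CCD imager, ex 570/em 671. Output = A647-equivalent conc. per cpd conc.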
AID923: qHTS Assay for Allosteric/Competitive Inhibitors of Caspase-1: Spectroscopic Profiling in AFC Spectral Region; compound fluorescence, AFC spectral region (405/520 nm); almost no hit is shown here; Potency, µM (highest dose often 57.5 µM), for inactives: at the highest dose fluorescence increase, actives largely listed as activators; actives 1.1% (n = 75,000); AID 923, 2007; active = well fitted activation curve with a large enough effect; inconclusive = small, poorly fitted or top-dose-only effect;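 also: potency is read from the fitted curve at half-maximal effect; 0% is about no effect; scaled to a free AFC standard on each plate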
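Compound autofluorescence profiled at 405 nm ex/520 nm em during kinetic caspase 1 run (50 nM enzyme, 5 uM Ac-WEHD-AFC, HEPES pH 7.5, 10 mM DTT). Titration up to 57 uM; baseline from regression intercept, normalized to AFC standard curve.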
TSHR ag: qHTS Assay for Agonists of the Thyroid Stimulating Hormone Receptor. actives 0.48% (n = 73,000). HEK293-CNG-TSHR cells (CNG channel as cAMP sensor), membrane potential dye, cAMP. Potency, µM (doses to about 57.1 µM), for inactives: at the highest dose activation, actives largely listed as activators. AID 926, 2007; active = well fitted activation curve of enough size with the parental cells flat; inconclusive = any curve in the parental cells; inactive = parental cells flat and receptor cells flat or falling; also: potency is read from the fitted curve at half-maximal effect; % of control where 0% means no effect; weak receptor curves with flat parental cells got no call and are not listed
Target sequence (P16473 whole entry, looked up): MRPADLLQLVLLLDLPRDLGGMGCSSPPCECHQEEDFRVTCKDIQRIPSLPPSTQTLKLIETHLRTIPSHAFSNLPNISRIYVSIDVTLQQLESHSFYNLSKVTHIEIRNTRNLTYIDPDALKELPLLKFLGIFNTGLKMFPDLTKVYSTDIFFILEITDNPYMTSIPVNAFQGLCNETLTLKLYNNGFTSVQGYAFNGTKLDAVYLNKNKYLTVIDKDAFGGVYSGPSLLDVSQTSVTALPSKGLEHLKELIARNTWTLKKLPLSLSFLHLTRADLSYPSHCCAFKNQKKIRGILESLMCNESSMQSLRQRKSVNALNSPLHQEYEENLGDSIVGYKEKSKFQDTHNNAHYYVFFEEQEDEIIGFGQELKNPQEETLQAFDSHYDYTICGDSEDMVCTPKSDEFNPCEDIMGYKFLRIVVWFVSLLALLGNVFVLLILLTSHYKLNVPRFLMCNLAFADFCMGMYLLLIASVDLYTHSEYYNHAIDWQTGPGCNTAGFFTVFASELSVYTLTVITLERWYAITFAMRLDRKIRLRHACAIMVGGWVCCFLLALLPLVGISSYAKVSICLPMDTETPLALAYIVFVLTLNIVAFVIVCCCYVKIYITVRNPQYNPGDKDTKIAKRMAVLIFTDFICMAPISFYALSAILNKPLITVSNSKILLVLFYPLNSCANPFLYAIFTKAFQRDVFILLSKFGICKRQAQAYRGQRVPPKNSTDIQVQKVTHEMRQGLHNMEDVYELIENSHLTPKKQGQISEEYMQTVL
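cAMP rise detected as CNG-channel membrane depolarization by fluorescent dye (emission 590 nm), 30 min after compound, following 60 min dye loading containing 100 uM RO 20-1724 at room temperature. Cells: TSHR/CNG HEK 293, with parental CNG HEK 293 as control.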
Resorufin autofl: qHTS Assay for Spectroscopic Profiling in Resorufin Spectral Region; Compound fluorescence, resorufin region 547/598 nm, buffer; hits give high values; max dye-equivalent concentration, M; actives 0.04% (n = 59,000); AID 588, 2007; active = above 10 nM dye equivalent; inconclusive = 1 to 10 nM; inactive = 1 nM or less; a few of its hits are not listed in these tables; also: highest value over a series up to 38 µM
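Compounds in 100 mM Tris, pH 8.0, incubated 15 min at room temperature, then fluorescence read at 547 nm excitation/598 nm emission. Signal converted to dye-equivalent concentration via an on-plate six-point resorufin standard curve, per compound concentration.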
A488 autofl: qHTS Assay for Spectroscopic Profiling in A488 Spectral Region | compound autofluorescence, A488 spectral region, dye equivalency; hits give high values | max dye equivalency, M | actives 0.1% (n = 59,000) | AID 591, 2007; active = above 10 nM dye equivalent; inconclusive = 1 to 10 nM; inactive = 1 nM or less; about half of its hits are not listed in these tables;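 also: highest value over a series up to 38 µM; compound alone in buffer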
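Readout is A488 dye-equivalent concentration, calibrated by a per-plate six-point Alexa 488 series. Compounds in 100 mM Tris buffer pH 8.0 were incubated 15 min at room temperature. Plates were imaged using 480 nm excitation/540 nm emission filters.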
* marks the source's active call; other numbers are inactive results; i = inactive; ? = inconclusive; . = not tested or not shown; [ ] = another dose, or the depositor's remark.

canonical_smiles,A647 fluor,AID923,TSHR ag,Resorufin autofl,A488 autofl
COc1ccc(C2CC(c3ccc(OC)cc3)n3nc(NC(=O)c4ccco4)nc3N2)cc1 (configuration not stated),1e-09,2.9%,4.6%,i,i
Cc1ccccc1Br,.,1.2%,-6.4%,.,.
O=C(Nc1ccccc1C(=O)OC1CCOC1=O)c1ccco1 (configuration not stated),1e-09,0.3%,1.9%,i,i
N#Cc1cccc(NC(=O)N2CCC3(CC2)CCN(C(=O)c2ccco2)CC3)c1,1e-09,0.3%,4.9%,i,i
Cc1csc(NC(=O)c2ccccc2O)n1,2.66e-08,-0.4%,-16.5%,i,i
CC1CCCCN1CC(=O)NCc1ccc2c(c1)OCO2 (configuration not stated),1e-09,1.3%,2.2%,i,i
O=C(NCCN1CCOCC1)Nc1ccc(Cl)cc1Cl,4.22e-08,0.9%,8.2%,i,i
CCOc1ccc(NC(=O)Cn2nnc(-c3ccccc3NC(=O)C3CC3)n2)cc1,1.13e-08,0.1%,7.6%,i,i
CCCOc1ccccc1C1NC(=O)NC(C)=C1C(=O)OCCOC(C)C (configuration not stated),.,-0.6%,13.3%[11.4 µM],.,.
O=C(CN1CCCN(Cc2ccc(F)cc2Cl)C1=O)NCc1ccccc1,1e-09,-1.4%,25.1µM*,i,i
Cc1cccc(OCc2nnc(SCC(=O)Nc3cc(C)on3)n2C)c1,7.3e-09,-0.8%,1.3%,i,i
CCOC(=O)c1ccc(NC(=O)CCC(=O)OC)cc1,.,-0.2%,-16.4%,.,.
COC(=O)c1ccc(C(/C=C/[C@@H](C)C(=O)N(C)Cc2ccccc2)NC(=O)OCc2ccccc2)cc1 (some centres not stated),.,0.2%,?,.,.
Cc1ccc(S(=O)(=O)N2CCOCC2)cc1C(=O)O,1e-09,-0.4%,2.0%,i,i
CSc1nsc(SCC(=O)N2CCN(c3ccccc3)CC2)n1,4.8e-09,-1.2%,4.0%,i,i

Quoted from the listing.
`O=C(CN1CCCN(Cc2ccc(F)cc2Cl)C1=O)NCc1ccccc1` in A647 fluor: 1e-09
`Cc1csc(NC(=O)c2ccccc2O)n1` in TSHR ag: -16.5%
`COc1ccc(C2CC(c3ccc(OC)cc3)n3nc(NC(=O)c4ccco4)nc3N2)cc1` (configuration not stated) in A647 fluor: 1e-09
`Cc1cccc(OCc2nnc(SCC(=O)Nc3cc(C)on3)n2C)c1` in AID923: -0.8%
`Cc1ccccc1Br` in TSHR ag: -6.4%

Other compounds
canonical_smiles,A647 fluor,AID923,TSHR ag,Resorufin autofl,A488 autofl
COc1cccc(C2C(C(=O)OCc3ccccc3)=C(C)Nc3ncnn32)c1OC (configuration not stated),.,1.5%,?,.,.
Cc1cc(C)c(C)c(S(=O)(=O)NCc2cccnc2)c1C,2.4e-09,2.3%,?,i,i
Cc1cc2oc(=O)cc(Cn3ccnc3)c2cc1C,1.3e-09,-2.2%,1.8%,i,i
CCOC(=O)N/N=C1/C[C@@H](O)[C@@H](O)[C@@H]2[C@@H]3C(=O)N(CC)C(=O)[C@H]3CC[C@@H]12,.,-3.0%[11.5 µM],-1.8%[11.4 µM],.,.
C[C@H]1C2=C3C(CC[C@H]4C(OCc5ccc(F)cc5C(F)(F)F)OC[C@](C)([C@@H]34)N(C(=O)OC(C)(C)C)C2)C(CO)C1CO (some centres not stated),.,-0.9%,-4.5%,.,.
COc1ccc(CC(=O)NC(C)c2nnc(SCc3nc4ccccc4c(=O)[nH]3)n2C)cc1 (configuration not stated),4.2e-09,4.0%,3.4%,i,i
S=c1[nH]nc(C2COc3ccccc3O2)o1 (configuration not stated),9.1e-09,-1.5%,10.4%,i,i
O=S(=O)(c1ccc2c(c1)OCCO2)N1CCC(c2nc3ccc(Cl)cc3[nH]2)CC1,1e-09,-0.3%,22.2%,i,i
COc1ccc(Oc2ncc3nc(-c4ccccc4)c(=O)n(C[C@H]4CCCO4)c3n2)cc1,2.64e-08,7.9%,14.4%,i,i
Cc1ccc2cc(CN(C(=O)c3cccnc3)C(C)C)c(=O)[nH]c2c1,7e-09,-0.1%,16.3%,i,i
CC(C)Oc1ccccc1C1CC(=O)Nc2cc3c(cc21)OCO3 (configuration not stated),1e-09,0.0%,?,i,i
CC12C(=O)N(c3nccs3)C(=O)C1C1C=CC2C1 (configuration not stated),1.27e-08,-1.2%,4.0%,i,i
CC(C)(C)n1ncc2c(=O)n(CC(=O)NCc3ccc(F)cc3)cnc21,1e-09,-0.4%,.,i,i
NS(=O)(=O)c1cc2c(cc1Cl)N[C@H](Cc1ccccc1)NS2(=O)=O,3.8e-08,-4.2%[11.5 µM],-3.2%[11.4 µM],i,i
O=C(NC1CC2CCCC(C1)N2CC(=O)N1CCCc2ccccc21)C1CCCCC1 (configuration not stated),2.88e-08,-0.2%,11.1%,i,i

The results go on:
canonical_smiles,A647 fluor,AID923,TSHR ag,Resorufin autofl,A488 autofl
CCCc1cc(-n2ccnc2C)n2c(nc3ccccc32)c1C#N,1e-09,.,.,i,i
O=C(COC(=O)c1ccc(Br)o1)Nc1nc2ccccc2s1,.,1.9%,?,.,.
COc1ccc(C(C)=O)cc1COC(=O)c1ccc2c(c1)OCO2,2.53e-08,-1.1%,?,i,i
CCOc1ccc2[nH]c(=O)c(C(c3nnnn3Cc3ccco3)N3CCCC(C)C3)cc2c1 (configuration not stated),5.1e-09,3.6%,?,i,i
O=C(c1ccco1)N1CCN(C(=O)C2CC(c3ccc(Cl)c(Cl)c3)=NO2)CC1 (configuration not stated),2.36e-08,-0.8%,21.2%,i,i
Cn1nc(C(=O)NCc2cccnc2)c2ccccc2c1=O,2.1e-09,0.5%,5.0%,i,i
Cc1ccccc1C(=O)N1CCN(c2ccc(NC(=O)c3ccco3)cc2Cl)CC1,2.44e-08,-1.3%,-7.1%,i,i
C=CCNC(=O)NC(=O)COC(=O)CCCSc1nc2ccccc2[nH]1,1.5e-08,-0.1%,-5.8%,i,i
COc1nc(-c2ccc(C)cc2)ccc1-c1noc(-c2cccnc2)n1,8.4e-09,2.7%,0.8%[11.4 µM],i,i
COc1cccc2c(=O)n(CC(=O)N3CCN(c4ccccc4)CC3)ccc12,.,-4.3%,?,.,.
CCNc1nc(Oc2ccccc2)nc(OC(C)C(=O)OCC)n1 (configuration not stated),7.48e-08,.,.,i,i
Cn1cnc(S(=O)(=O)Nc2ccc(C(F)(F)F)cc2)c1,2.3e-09,-1.0%,?,i,i
C=CCN1C(=O)C(CC(=O)NCC)SC1=Nc1ccc(S(N)(=O)=O)cc1 (configuration not stated),5.8e-09,1.5%,2.4%,i,i
COc1ccc(C2c3c(oc4ccccc4c3=O)C(=O)N2Cc2ccncc2)cc1OC (configuration not stated),1.59e-08,1.6%,?,i,i
Cc1ccc(CN2C(=O)CCC2C(=O)NCc2ccc3c(c2)OCO3)cc1 (configuration not stated),1e-09,-0.1%,1.5%,i,i

The listing continues:
canonical_smiles,A647 fluor,AID923,TSHR ag,Resorufin autofl,A488 autofl
COC(=O)Nc1cc(C(F)(F)F)ccc1N1CCN(c2ccccc2)CC1,2.3e-09,-0.1%,?,i,i
O=C(O)CCC(=O)Nc1ccccc1N1CCOCC1,1.94e-08,0.8%,8.3%,i,i
CCN(CC)S(=O)(=O)c1cccc(-c2nnc(SCCOc3ccc(Cl)cc3)o2)c1,1.29e-08,0.3%,?,i,i
O=C(COC(=O)c1ccc(Br)o1)Nc1ccc(S(=O)(=O)N2CCCC2)cc1,1e-09,-0.8%,-2.9%,i,i
CCN1CCc2c(sc(NC(=O)c3ccc(S(=O)(=O)N4CCOCC4)cc3)c2C(N)=O)C1,.,3.0%,-6.1%,.,.
O=C(NCc1cccnc1)NC1CCCN1S(=O)(=O)c1ccc(Cl)cc1 (configuration not stated),1.64e-08,-0.3%,3.3%,i,i
COCCSc1ccccc1C(=O)NCCCn1ccnc1,1e-09,0.4%,-0.5%,i,i
Cc1ccc2c(c1)NCC(C(=O)NC1CCC(C)CC1)O2 (configuration not stated),.,-0.6%,15.2%,.,.
CN1CCN(S(=O)(=O)c2ccc(NC(=O)c3ccc(Br)s3)cc2)CC1,1.02e-08,-0.3%,-4.1%,i,i
COC(=O)C1=C(C)NC(=O)NC1c1cn(-c2ccccc2)nc1-c1cccs1 (configuration not stated),3.68e-08,-2.2%,25.1µM*,i,i
Cc1ccc(Nc2nc(C(=O)N3CCC(C(=O)N4CCN(C)CC4)CC3)cs2)cc1,3.97e-08,-1.8%,?,i,i
O=C1c2oc3ccc(Cl)cc3c(=O)c2C(c2cccnc2)N1Cc1ccco1 (configuration not stated),1.31e-08,2.9%,.,i,i
CC(C)OCCCNc1ncnc2c1cnn2-c1ccccc1,3.26e-08,.,.,i,i
C/C=C/Cn1c(Br)nc2c1c(=O)[nH]c(=O)n2C,1e-09,0.7%,-1.1%,i,i
Cc1cc(C)nc(N2CCCC(C(=O)Nc3ccc4c(c3)OCCO4)C2)n1 (configuration not stated),1.12e-08,0.8%,-0.4%,i,i

A second format for 2 compounds above.
The line under a structure holds: A647 fluor	AID923	TSHR ag	Resorufin autofl	A488 autofl
> NS(=O)(=O)c1cc2c(cc1Cl)N[C@H](Cc1ccccc1)NS2(=O)=O
    3.8e-08	-4.2%[11.5 µM]	-3.2%[11.4 µM]	i	i
> O=C(NCc1cccnc1)NC1CCCN1S(=O)(=O)c1ccc(Cl)cc1 (configuration not stated)
    1.64e-08	-0.3%	3.3%	i	i

Carrying on:
canonical_smiles,A647 fluor,AID923,TSHR ag,Resorufin autofl,A488 autofl
COc1ccc(C)cc1-n1nnnc1SCC(=O)c1ccc2c(c1)OCCO2,2.1e-09,2.1%,.,i,i
CC(=O)Nc1ccc(CN2CCCCCCC2)cc1,.,5.3%,1.4%,.,.
O=S(=O)(c1ccc(Oc2ccc(S(=O)(=O)N3CCOCC3)cc2)cc1)N1CCOCC1,.,-1.7%,12.6%[11.4 µM],.,.
NC(=O)c1ccsc1NC(=O)CSc1nc2ccccc2c(=O)n1CCCO,2.78e-08,-2.4%,?,i,i
Cc1cc(C(F)(F)F)c(C#N)c(SCC(=O)NC(C)(C)C)n1,1e-09,0.3%,6.2%[11.4 µM],i,i
Fc1ccc2[nH]c3c(N4CCN(c5ccccc5)CC4)ncnc3c2c1,1.74e-08,2.9%,17.7%,i,i
CCC1Oc2ccc(C)cc2N(CC(=O)NCCC2=CCCCC2)C1=O (configuration not stated),1.39e-08,-1.9%,?,i,i
O=C(NCc1cccs1)C1CCCN(c2nc3ccccc3o2)C1 (configuration not stated),4.9e-09,-1.7%,5.8%,i,i
Cc1nc(S(=O)(=O)N2CCOCC2)c(C#N)c(C)c1Cl,5.3e-09,-0.4%,-0.4%[11.4 µM],i,i
CC1(C)CC(=O)C=C(Nc2ccccc2O)C1,2.63e-08,3.7%,11.3%,i,i
CCCCCOC(=O)Cn1c(N2CCOCC2)nc2c1c(=O)[nH]c(=O)n2C,1e-09,2.2%,-5.5%,i,i
COCC(=O)Nc1nc(-c2ccccc2)ns1,9.6e-09,0.3%,14.2%,i,i
CCn1c(CSc2nnc(-c3ccoc3C)n2C)nc2cc(S(=O)(=O)N(C)C)ccc21,3.47e-08,-0.8%,?,i,i
CCOC(=O)c1sc(=NC(=O)c2cc(OC)c(OC)c(OC)c2)n(C)c1C,4.8e-09,-0.3%,3.7%,i,i
O=C(Nc1cccc2c1CCCC2)C1CCN(c2nnnn2-c2ccccc2)CC1,1.95e-08,0.3%,?,i,i

The list is partial. The share of hits here may be higher or lower than overall.
